High-throughput results from PubChem.
CBX7 AlphaScr – CBX7 chromodomain binding inhibitors, primary screen, biochemical, AlphaScreen | Chromobox protein homolog 7 (Homo sapiens), O95931 | AlphaScreen His6-CBX7 / biotin-H3K27me3 peptide binding; stronger effect = lower value | normalised signal (fraction of DMSO) (no concentration beside the values) | hit rate 1.1% among 66,000 | AID 1224903, 2016; in the data active = normalised signal below about 0.5;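 note: 100 nL library stock added to about 20 µL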
Target sequence (O95931 whole entry, looked up): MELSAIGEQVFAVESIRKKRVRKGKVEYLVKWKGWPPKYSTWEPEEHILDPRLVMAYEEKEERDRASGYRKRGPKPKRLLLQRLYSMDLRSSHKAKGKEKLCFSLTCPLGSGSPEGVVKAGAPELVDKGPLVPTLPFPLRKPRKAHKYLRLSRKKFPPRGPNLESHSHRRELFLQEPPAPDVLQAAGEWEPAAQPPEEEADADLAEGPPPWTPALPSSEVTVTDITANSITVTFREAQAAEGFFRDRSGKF
CBX7 AlphaScr z-score – recorded beside CBX7 AlphaScr, whose call it bears; z-score; measured here: z-score of CBX7 signal; some inactives read as strong as hits; reference of the scale not given here;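 same signal on another scale; lower means less binding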
Numbers without * were called inactive; & = joins results of further samples.

SMILES	CBX7 AlphaScr	CBX7 AlphaScr z-score
O=C(O)CC1N=C(Nc2nc3ccccc3o2)NC1=O (stereo not given)	0.91	-0.93
CCC(C)NC(=O)CN1C(=O)COc2ccc(S(=O)(=O)N3CCC(C)CC3)cc21 (stereo not given)	1	-0.17
CCCCNC(=O)CN1C(=O)C(CC)Oc2ccc(Cl)cc21 (stereo not given)	0.72	-3.3
CC1CCN(c2oc(-c3ccccc3F)nc2C#N)CC1	0.83	-1.9
O=C(NCCCn1ccnc1)C(=O)Nc1cccc(Cl)c1Cl	1	0.74
CC(=O)Nc1cccc(Oc2ncnc3scc(-c4ccccc4)c23)c1	0.61	-0.78
O=C1NCCNC1(c1c[nH]c2ccccc12)C(F)(F)F (stereo not given)	1	1.9
Clc1ccc(Nc2nc(-c3ccc(Cl)c(Cl)c3)cs2)cc1Cl	0.68	-5.1
COc1ccc(C2CC(=O)C3=C(C2)Nc2ccccc2NC3c2cccc(OC)c2OC)cc1 (stereo not given)	0.94	-1.2
O=C(c1ccccc1)c1n[nH]c(-c2ccc(Br)cc2)cc1=O	0.95	-0.87
COc1ccc(C(=O)NCc2nnc(SCC(=O)Nc3ccc(C)cc3C)o2)cc1OC	1.1	1.6
CCOc1ccc2nc(C)cc(Nc3cc(Cl)ccc3OC)c2c1	0.85	-2.2
O=C(COc1ccc(F)cc1)Nc1c(C(=O)c2ccc(Cl)cc2)oc2ccccc12	1	0.06
CC(C)=CCSc1nnc(-c2cccnc2)o1	0.98	-0.47
CNC(=O)COc1ccc(Nc2nnc(-c3ccc(C)c(S(=O)(=O)NC)c3)c3ccccc23)cc1	1	0.069
CN(CC(=O)NC1CCCCCC1)S(=O)(=O)c1ccc2c(c1)n(C)c(=O)c(=O)n2C	1.2	1.9
CC1CCCCC1NC(=O)c1ccc2c(c1)N(Cc1ccc(F)cc1)C(=O)CS2 (stereo not given)	1.1	0.67
COCCCNC(=O)CSc1nc(-c2ccc(C)cc2)[nH]c1-c1ccc(OC)cc1	0.95	-2.2
CC1Cc2ccccc2N1S(=O)(=O)c1ccc2c(c1)CCC(=O)N2 (stereo not given)	0.99	-0.33
CCOc1ccc(-c2nc(C#N)c(NCc3ccc4c(c3)OCO4)o2)cc1	1.1	1.5
CCCCOc1ccc(C(C)NC(=O)CN2CCN(Cc3cccc(C)c3)C2=O)cc1 (stereo not given)	1	0.26
CN(Cc1cnn(C)c1)C(=O)c1cc(-c2ccccc2)nc2ccc(Br)cc12	1	0.59
Cc1ccc2[nH]c(C)c(CN3CCCCCC3)c(=O)c2c1	1.1	2.5
CCN(CC)CCNC(=O)CCc1c(C)nc2c(-c3ccccc3)c(C)nn2c1C	1.2	2.5
CCOC(=O)c1sc2ncn(Cc3ccccc3C)c(=O)c2c1C	0.91	-0.087
CC1CC(C)CN(C(=O)C2CCCN(C(=O)c3cc4sccc4n3C)C2)C1 (stereo not given)	0.91	-2.7
CCc1ccc(Nc2ncnc3c2cnn3-c2ccc(OC)cc2)cc1	0.97	-0.1
CC1CC2C3CCC4=CC(=O)C=CC4(C)C3(F)C(O)CC2(C)C1(O)C(=O)CO (stereo not given)	1	0.48
CC1CCCCC1NC(=O)c1csc2c1CCCC2 (stereo not given)	1	0.62
COc1ccc2nc(C)cc(Nc3ccc(O)cc3)c2c1	0.95	-0.62

More results:
SMILES	CBX7 AlphaScr	CBX7 AlphaScr z-score
Cc1oc(-c2cccc(Cl)c2)nc1CN1CCC(C(=O)NCCC2=CCCCC2)CC1	1.4	3.7
COc1ccc(-c2nn(-c3ccccc3)cc2C(=O)Nc2nccs2)cc1OC	0.79	-4.4
CC(C)CCNC(=O)c1cc(=O)[nH]c2ccc(Br)cc12	0.99	-0.18
Cc1[nH]c2ccccc2c1CCNC(=O)NC(=O)c1ccc(C(F)(F)F)cc1	1	0.026
CCN(CCCNC(=O)Cn1nc(Cc2cccnc2)c2ccccc2c1=O)Cc1ccccc1	1	0.012
Fc1ccccc1-c1nc(N2CCN(c3ccccc3)CC2)c2ccccc2n1	0.87	-0.17
Cc1ccc(Nc2ncc(C(=O)Nc3ccc(F)cc3)c3ccccc23)cc1Cl	1.4	10
COc1cccc(CN2C(=O)c3ccccc3C2C(=O)NCC2CCCO2)c1 (stereo not given)	1	0.018
CCN1CCN(c2cc(=O)n(-c3ccccc3Cl)c(=O)[nH]2)CC1	0.97	-0.56
CC1CCN(C2=Nc3ccc(NC(=O)c4ccccc4F)cc3C(C)C2)CC1 (stereo not given)	0.91	-0.32
Cc1cc2nc(Cc3cccc(F)c3)c(=O)n(C)c2cc1C	1.1	0.95
Cc1sc2ncnc(Nc3ccc(C(F)(F)F)cc3)c2c1S(=O)(=O)N1CCC(C)CC1	0.9	-1.2
Cc1ccc(NC(=O)Nc2ccc(Cl)cc2)nc1	0.64	-2.3
CCCN1CCN(CCCNC(=O)c2cnn(-c3ccccc3)c2-n2cccc2)CC1	1	0.36
O=C(CN1C(=O)COc2ccc(S(=O)(=O)N3CCCCCC3)cc21)NCCN1CCOCC1	1	1.6
COc1cccc(-c2nn(C)c3sc(C(=O)Nc4ccc(C)cc4Br)cc23)c1	0.84	-2
Cc1ccc(Nc2c(-c3cccc(Br)c3)nc3ccc(C)cn23)cc1	1	0.62
CCn1cnc2cc(NCc3ccccn3)ccc21	0.32*	-5.5*
CCn1c(=O)cc(OCC(=O)Nc2ccc(Oc3ccccc3)cc2)c2ccccc21	0.89	-1.7
CCc1ccc(NC(=O)C2CCN(S(=O)(=O)c3ccc4c(c3)CCC(=O)N4)CC2)cc1	1.1	1.3
CCOC(=O)c1c(-c2ccc(Cl)cc2)csc1NC(=O)c1ccccc1OC	1.4	4.5
CCC(=O)Nc1nc(C)c(-c2csc(Nc3cccc(O)c3)n2)s1	0.89&0.75	-2.6&-3.6
CC1=C(C(=O)Nc2ccc(Br)cn2)C(c2ccc3c(c2)OCO3)C2=C(CCCC2=O)N1 (stereo not given)	1.1	1.2
O=C(Nc1ccccc1F)c1cc(-c2ccc(Cl)s2)nc2ccccc12	1.1	3.2
Cc1nc(N2CCCCC2C)c2c(C)c(C(=O)Nc3ccc(F)cc3)sc2n1 (stereo not given)	1	1.2
CCOC(=O)C1=C(C)Nc2nnnn2C1c1cccnc1 (stereo not given)	1	0.039
COc1ccc(N2CCN(CCNC(=O)CN3C(=O)COc4ccccc43)CC2)cc1	0.9	-1.5
CCOC(=O)c1cnc2cc(C(F)(F)F)ccc2c1Nc1ccc(F)cc1Cl	1	-0.047
CN1C(=O)C(O)(c2c[nH]c3ccccc23)c2cc(Cl)ccc21 (stereo not given)	0.84	-0.21
CN(C)CCCNC(=O)N1c2ccccc2C=Cc2ccccc21	0.99	-0.13

Four entries from above, with two lines to a compound:
Order of values: CBX7 AlphaScr, CBX7 AlphaScr z-score
CCN(CCCNC(=O)Cn1nc(Cc2cccnc2)c2ccccc2c1=O)Cc1ccccc1
    1, 0.012
CCCN1CCN(CCCNC(=O)c2cnn(-c3ccccc3)c2-n2cccc2)CC1
    1, 0.36
CCOC(=O)c1c(-c2ccc(Cl)cc2)csc1NC(=O)c1ccccc1OC
    1.4, 4.5
CN(C)CCCNC(=O)N1c2ccccc2C=Cc2ccccc21
    0.99, -0.13

The results go on:
SMILES	CBX7 AlphaScr	CBX7 AlphaScr z-score
CCc1cccc(CC)c1NC(=O)C1(S(=O)(=O)c2ccc(Cl)cc2)CC1	1.3	3.4
CCn1c(=N)n(CC(=O)c2ccc(-c3ccccc3)cc2)c2ccccc21	0.85	-1.8
CCN(CCCNC(=O)c1ccc2c(c1)ncn2C1CCCCC1)c1ccccc1	0.82	-8.6
CCc1ccc2c(c1)c(=O)c(S(=O)(=O)c1ccccc1)cn2CC(=O)Nc1cccc(Cl)c1	0.99	-0.26
CCOc1ccc(CNC(=O)c2cc(=O)[nH]c3ccc(S(=O)(=O)N4CCCC4)cc23)cc1	1	0.31
O=S(=O)(c1ccccc1)c1nc(-c2ccc(Br)cc2)oc1N1CCCCC1	0.62	-0.45
COCCCNC(=O)c1ccc2c(c1)N(Cc1ccc(Cl)cc1)C(=O)CS2	1	0.14
COC(=O)c1ccc2nc(-c3cccc(F)c3)c(-c3cccc(F)c3)nc2c1	0.91	-0.58
CCC(C)NC(=O)CCCNC(=O)Cn1cnc2sc(C)c(C)c2c1=O (stereo not given)	0.94	-1.3
COc1ccc(-n2cc(C(=O)NCCN3CCOCC3)c3ccccc3c2=O)cc1	1.1	3.3
CC1CCN(C(=O)CN2C(=O)COc3ccc(S(=O)(=O)N4CCC(C)CC4)cc32)CC1	1	0.98
Cc1cc(C)c2nc(Nc3nc(-c4ccccc4)cc(=O)[nH]3)nc(C)c2c1	1	0.093
O=C(NCc1ccccc1Cl)c1ccc2c(c1)ncn2C1CCCC1	0.96	-0.59
CCc1ccc(NC(=O)CN2C(=O)CSc3ccc(S(=O)(=O)N(CC)CC)cc32)cc1	0.95	-1.7
CCC(CC)NCc1oc2ccc(Cl)cc2c1-c1ccc(OC)cc1	0.96	-1.4

(continued)
SMILES	CBX7 AlphaScr	CBX7 AlphaScr z-score
CN(CCNC(=O)c1ccc2c(=O)n3c(nc2c1)CCCCC3)Cc1ccccc1	0.85	-2.4
CNS(=O)(=O)c1cc(-c2nnc(Nc3ccc(OCC(N)=O)cc3)c3ccccc23)ccc1C	0.73	-5.1
Cc1cc(Nc2ccc(Br)cc2F)n2nc(C)nc2n1	1	0.37
COc1ccccc1CNC(=O)c1cc2c(-c3ccc(OC)c(OC)c3)nn(C)c2s1	0.94	-2.6
Cc1n[nH]c(C)c1CCCCCCOc1ccc(F)cc1	1	0.025
O=C(CSc1nnc(-c2cccc(Cl)c2)o1)N1CCCCC1	1.2	1.7
Cc1nnc(NC(=O)c2ccc(C(=O)c3ccccc3)cc2)s1	0.95	-0.87
COC(=O)c1c(NC(=O)COc2cccc(C)c2)sc2c1CCCC2	1.4	0.85
COc1cccc(-c2nc(CS(=O)(=O)CC(=O)NCCCN3CCCC3=O)c(C)o2)c1	1	0.22
Cc1ccc(-c2nnc(Nc3ccc(O)cc3)c3ccccc23)cc1S(=O)(=O)N(C)C	0.83	-4.2
COc1ccc(NC(=O)c2cc(-c3ccc(F)cc3)on2)cc1OC	1.1	0.098
Cc1cccc2c1CC(C)(C)n1c(-c3ccc(Cl)cc3)nnc1-2	1	0.32
Cc1ccc(C)c(CN2C(=O)c3ccccc3Sc3ccc(C(=O)O)cc32)c1	1.1	4.1
CCCCN(CC)S(=O)(=O)c1ccc2c(c1)CCN2C(=O)CC	0.87	-1.1
CC1CCN(S(=O)(=O)c2ccc3[nH]cc(C(=O)NCc4ccccc4Cl)c(=O)c3c2)CC1	1.1	1.5

(continued)
SMILES	CBX7 AlphaScr	CBX7 AlphaScr z-score
CCOc1ccccc1C(=O)NCCc1cc2c(C)ccc(C)c2[nH]c1=O	1	0.081
COc1ccccc1Nc1ncc(C(=O)N2CCOCC2)c2ccccc12	1.4	3.3
CCCCN(CCCC)S(=O)(=O)c1ccc2[nH]c(=O)cc(C(=O)NCc3ccccc3)c2c1	1	0.25
CCc1ccc(NC(=O)CSc2nnc(CC)c(CC)n2)cc1	1.1	3.2
COc1cccc(OCC(O)Cn2c(C)nc3ccccc32)c1 (stereo not given)	0.99	-0.097
O=c1nc(/C=C/c2cccc(O)c2)cc(C(F)(F)F)[nH]1	1	0.23
Cc1nn(CC(=O)Nc2ccc(Cl)cc2Cl)c(=O)c2ccccc12	1	0.74
COc1ccc(C2CC(=O)N(CC(=O)NCc3ccccc3)c3ccccc3S2)cc1OC (stereo not given)	1	0.45
O=C(Nc1ccc(F)cc1F)c1ccc2c(=O)n3c(nc2c1)CCCCC3	1	1.3
CN(C(=O)CCc1nc(-c2ccccc2F)no1)c1ccc(Cl)cc1	0.83	-2.6
COCCN1Cc2cccc(C(=O)Nc3ccc(C(C)C)cc3)c2C1=O	1.1	2.9
Fc1ccc(CSc2nnc(-c3ccncc3)n2-c2ccccc2)cc1	0.75	-2.7
O=C(NCCc1ccc(Cl)cc1)c1ccc2c(=O)n(CCc3ccccc3)c(=O)[nH]c2c1	0.95	-1.3
Cc1ccc(-c2csc3ncnc(Oc4ccc(Cc5ccccc5)cc4)c23)cc1C	1.2	0.49
CCC(C)NC(=O)C1CCN(S(=O)(=O)c2ccc3nc4c(c(C(=O)O)c3c2)CCCC4)CC1 (stereo not given)	1	0.51

Sorted by SMILES length (descending): part of the list above.
SMILES	CBX7 AlphaScr	CBX7 AlphaScr z-score
COc1ccccc1CNC(=O)c1cc2c(-c3ccc(OC)c(OC)c3)nn(C)c2s1	0.94	-2.6
COC(=O)c1ccc2nc(-c3cccc(F)c3)c(-c3cccc(F)c3)nc2c1	0.91	-0.58
Cc1ccc(C)c(CN2C(=O)c3ccccc3Sc3ccc(C(=O)O)cc32)c1	1.1	4.1
CCOC(=O)c1c(-c2ccc(Cl)cc2)csc1NC(=O)c1ccccc1OC	1.4	4.5
CCc1ccc(NC(=O)CSc2nnc(CC)c(CC)n2)cc1	1.1	3.2

New compounds follow:
SMILES	CBX7 AlphaScr	CBX7 AlphaScr z-score
CC(=O)NCCNC(=O)Cn1c(=O)[nH]c2ccsc2c1=O	1.1	0.45
COC(=O)c1ccccc1NC(=O)c1c(-c2ccccc2)noc1C	1.1	2.9
c1ccc2[nH]c(CSc3nc4ncccc4[nH]3)nc2c1	1.2	3.4
OC(C#CCN1CCCCCC1)(c1ccccc1)c1ccccc1	1	0.13
COc1ccc(Cc2nc(-c3ccccn3)no2)cc1	0.97	-0.038
O=C(Nc1ncc(Cc2cccc(Cl)c2)s1)c1csc2c1CCCC2	1	0.039
COc1ccc(C(=O)Nc2nnc(-c3ccc(F)cc3)s2)c(OC)c1	1	0.81

These rows are one share of the data; rates above refer to the full screens.
